KCNQ2 enhance – enhances the rat KCNQ2 potassium channel | actives 0.54% (n = 310,000) | CHO-K1 KCNQ2, FluxOR thallium flux fluorescence; active compounds read high | AID 2239 | B-score at 10 µM;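 active = fluorescence ratio B-score at least 3 SD of library B-scores, with initial fluorescence B-score within 3 SD, cut at about 5.3 in these data; same plate scores as AID 2156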;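 note: B-score of peak minus minimum over baseline fluorescence ratio after K+ and Tl+ stimulus; positive B-score means potentiation of KCNQ2 with more thallium influx and brighter signal; only the inactives scoring about 0 or higher are listed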
Target sequence (O88943 whole entry, looked up): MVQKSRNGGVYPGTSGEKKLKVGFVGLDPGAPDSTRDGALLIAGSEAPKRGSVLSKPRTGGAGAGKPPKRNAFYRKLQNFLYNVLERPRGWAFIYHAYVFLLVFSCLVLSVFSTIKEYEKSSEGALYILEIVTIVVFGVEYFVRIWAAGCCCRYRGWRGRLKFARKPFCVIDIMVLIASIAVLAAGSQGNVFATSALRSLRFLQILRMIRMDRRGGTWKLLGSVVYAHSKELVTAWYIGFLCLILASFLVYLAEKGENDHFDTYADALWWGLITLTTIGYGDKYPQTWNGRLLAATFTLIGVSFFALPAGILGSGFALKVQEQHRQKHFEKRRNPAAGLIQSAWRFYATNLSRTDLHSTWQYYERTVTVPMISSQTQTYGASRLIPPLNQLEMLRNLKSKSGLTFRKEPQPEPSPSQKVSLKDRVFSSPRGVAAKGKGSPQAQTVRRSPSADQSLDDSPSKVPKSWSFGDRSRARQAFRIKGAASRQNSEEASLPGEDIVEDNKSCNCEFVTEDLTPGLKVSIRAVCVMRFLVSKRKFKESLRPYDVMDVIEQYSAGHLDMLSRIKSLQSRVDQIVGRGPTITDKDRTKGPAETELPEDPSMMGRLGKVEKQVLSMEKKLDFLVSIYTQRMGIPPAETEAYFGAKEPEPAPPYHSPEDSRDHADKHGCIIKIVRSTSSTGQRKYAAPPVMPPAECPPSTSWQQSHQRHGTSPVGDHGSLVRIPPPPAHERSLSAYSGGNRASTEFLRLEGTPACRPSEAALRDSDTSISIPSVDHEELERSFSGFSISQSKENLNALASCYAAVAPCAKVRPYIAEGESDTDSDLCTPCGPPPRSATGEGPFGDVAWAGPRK
KCNQ2 enhance baseline – second read-out of KCNQ2 enhance, no call of its own (marks repeat the call); B-score; compound at 10 µM; measured here: initial fluorescence intensity artifact check;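 brightness before thallium and not channel activity; 0 = typical well and far values either way flag optical interference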
* marks the source's active call; other numbers are inactive results.

SMILES | KCNQ2 enhance | KCNQ2 enhance baseline
O=C(O)COc1nsnc1N1CCOCC1 | 0.59 | -2.3
Cc1c(C(=O)O)nn(-c2ccccc2)c(=O)c1C#N | 1.7 | -1.3
COC(=O)Cn1c(O)c(N=NC(=O)OC)c2ccccc21 | 2.1 | -1.6
COc1cc2c(cc1OC)C(Nn1cnnc1)=NC1(CCCC1)C2 | 1.6 | 0.77
CC(C)CCNC(=O)COc1cccc2c1OC(C)(C)C2 | 0.68 | -0.63
O=C(CSc1nc2ccccc2c(=O)n1-c1ccccc1)N1CCN(CCO)CC1 | 0.26 | 1.5
Cc1ccc(C(=O)N2CCCC(C(=O)c3cc(F)ccc3F)C2)s1 (stereo unspecified) | 1.1 | -0.33
CC(C)(C)NC(=O)C1N(c2cccnc2)C(=O)C2C(C(=O)Nc3ccccc3F)C3(C)C=CC21O3 (stereo unspecified) | 0.47 | 0.68
CSc1nnc2ccc(-c3cccs3)nn12 | 0.95 | 0.02
CCN(CC)CCNc1nc(-c2ccccc2)c2c(c1C#N)CC(C)(C)OC2 | 1 | -0.44
CCN(CC)C(=O)C1CCCN(C(=O)c2cc(COc3ccc4ncccc4c3)on2)C1 (stereo unspecified) | 0.3 | -2.4
COc1ccc(S(=O)(=O)N(C)C)cc1NC(=O)Cc1cccs1 | 0.77 | -1.6
CCn1c(=O)n(CC)c2cc(NS(=O)(=O)c3ccccc3)ccc21 | 1.8 | 0.67
COCCN1Cc2cccc(C(=O)NCC3CCN(CC(C)C)C3)c2C1=O (stereo unspecified) | 0.15 | 0.68
Cc1ccc(-n2[nH]c(C)c(/C=N/Nc3ccc([N+](=O)[O-])cc3[N+](=O)[O-])c2=O)cc1 | 1.9 | -1.1
CC(=O)c1ccc(NC(=O)NC2CCCCCCC2)cc1 | 1.7 | -0.96
CCOc1ccc(C(=O)C(C)OC(=O)Cn2[nH]c(=O)c3ccccc3c2=O)cc1 (stereo unspecified) | 0.58 | -1.1
COc1ccc(NC(=S)NCCCn2ccnc2)cc1 | 0.93 | 1.5
CCCCN(C(=O)/C=C/c1ccco1)c1c(N)n(CCC)c(=O)[nH]c1=O | 0.22 | -0.94
CCOC(=O)c1nn(-c2ccccc2C)c2nc(CC(C)C)c(C#N)c(=O)n12 | 0.18 | 1.8
C=CCn1c(SCC(=C)C)nc2c1c(=O)[nH]c(=O)n2C | 0.11 | -0.74
CCOC(=O)N1CCN(S(=O)(=O)c2ccc(C(=O)Nc3sc4c(c3C(N)=O)CCN(CC)C4)cc2)CC1 | 0.84 | 0.71
Oc1ccc(/C=N/NC(=S)NCC2CCCO2)cc1 (stereo unspecified) | 0.93 | 0.92
C=CCN1/C(=C(\C#N)C2=NS(=O)(=O)c3ccccc32)N(C)c2ccccc21 | 1.1 | 0.41
Cc1cc(NC(=O)c2ccc(-c3ccc(F)c(Cl)c3)o2)no1 | 2.5 | -0.15
CCCCC(=O)Nc1ccc(C(=O)NN2C(=O)c3ccccc3C2=O)cc1 | 2.2 | 2
CC(C)Cn1c2nc3ccccc3nc2c2c(=O)n(CCN3CCOCC3)cnc21 | 0.28 | -0.41
Cc1c(NS(=O)(=O)N2CCCCC2)c(=O)n(-c2ccccc2)n1C | 1 | -0.34
CC1CCCC(C)N1CCCNC(=O)CCn1c(=O)c2cccn2c2cccnc21 (stereo unspecified) | 0.99 | -0.14
Cc1ccc(NC(=O)CSc2nc3ccccc3nc2N2CCOCC2)cc1 | 0.03 | -0.01
CC(C)N1CN(c2ccccc2)C(=S)N(c2ccccc2)C1 | 0.06 | 0.76
CCC(=O)N1CCc2cc(S(=O)(=O)N3CCCC3)ccc21 | 1.9 | -0.03
O=C(c1ccc(Cl)cc1)N1CCN(c2ccc([N+](=O)[O-])c(NCc3cccnc3)c2)CC1 | 0.08 | -0.06
O=C1CCc2cc(S(=O)(=O)NC(C(=O)N3CCN(c4ccccn4)CC3)c3ccccc3)ccc2N1 (stereo unspecified) | 1 | -1.4
NC(=O)CSc1ncc(-c2ccccc2)[nH]1 | 0.66 | 0.34
CCCCN(CCCC)S(=O)(=O)c1c(C)[nH]c(=O)[nH]c1=O | 0.17 | -0.01
NC(=S)N/N=C/c1ccc(/C=N/NC(N)=S)cc1 | 1.7 | 0.15
Cc1nc(SCc2ccc(O)c([N+](=O)[O-])c2)n[nH]1 | 0.92 | -0.41
CCCNC(=O)c1[nH]c(C)c(C(C)=O)c1C | 0.03 | 2.4
COc1ccccc1NC(=O)C(=O)c1cn(CC(=O)N2CCOCC2)c2ccccc12 | 0.32 | -0.15
CCOC(=O)C[C@H]1c2ccc(C(F)(F)F)cc2S(=O)(=O)N1c1cccc(OC)c1 | 0.37 | 0
CC(C)Sc1n[nH]c(=O)n1-c1cccc(C(F)(F)F)c1 | 0.35 | -0.27
Cc1ccc(NC(=O)c2ccn(C)n2)c(Br)c1 | 1.6 | -0.21
COc1cccc(CN2CC(C(=O)NCc3cccc(N4CCCC4)c3)CCC2=O)c1 (stereo unspecified) | 0.45 | 0.13
COc1ccc2cc(C)c3nnc(SCC(=O)Nc4cc(OC)c(OC)cc4C(=O)O)n3c2c1 | 1.1 | -0.79
CCOC(=O)Cc1csc(NC(=O)CCN2C(=O)c3cccc([N+](=O)[O-])c3C2=O)n1 | 0.05 | -0.44
O=C(N/N=C/c1ccc(O)cc1)c1ccc(COc2cc(Cl)ccc2Cl)o1 | 2.3 | -1.1
COC(=O)c1ccccc1NC(=O)CSCC(=O)Nc1ccccc1OC | 0.87 | -4.4
Cc1sc2ncn(CC(=O)Nc3c(F)cccc3F)c(=O)c2c1S(=O)(=O)N1CCC(C)CC1 | 1.7 | -0.46
CN(C)S(=O)(=O)N1CCN(S(=O)(=O)c2ccc(F)cc2)CC1 | 0.83 | -0.18

(listing goes on)
SMILES | KCNQ2 enhance | KCNQ2 enhance baseline
COc1ccc(OCCN(C)CC(=O)Nc2c(C)cccc2C)cc1 | 0.95 | -0.01
CCc1ccc2oc(C(=O)Nc3nonc3C)c(C)c2c1 | 0.32 | -0.79
O=C(Nc1ccn(Cc2c(F)c(F)cc(F)c2F)n1)c1ccc(COc2ccccc2Cl)cc1 | 0.22 | 1.4
CCc1nc2scc(-c3ccc(C)cc3)c2c(=O)n1N | 0.4 | -0.18
c1ccc(-c2nn3c(Cn4nnc5ccccc54)nnc3s2)nc1 | 1.9 | 1.1
COc1cc(-n2c(C)nc3cc(C(=O)NCC4CCCO4)ccc32)cc(OC)c1OC (stereo unspecified) | 0.01 | 0.99
CCOC(=O)N/N=C\c1ccc(-c2cccc(C(F)(F)F)c2)o1 | 0.23 | -1.7
Cc1ccc(NC(=S)Nc2ccc(F)cc2)cc1C | 1.5 | -0.32
O=C(CSc1nnnn1-c1ccccc1)N1CCc2ccccc21 | 3.2 | -1.6
CS(=O)(=O)N1N=C(c2ccc3nccnc3c2)CC1c1ccccc1 (stereo unspecified) | 0.25 | 0.29
Cn1nccc1NC(=O)Nc1ccc(Cl)cc1 | 0.68 | -1
CC(OC(=O)CCN=C1NS(=O)(=O)c2ccccc21)C(=O)N(C)c1ccccc1 (stereo unspecified) | 0.13 | 0
COC(=O)c1cc(-c2ccc(C)cc2)n[nH]1 | 0.05 | -1.4
Cc1cccc(OCCn2nnc3ccccc32)c1C | 0.33 | -1.2
CCCCN1C(=O)c2ccc(C(=O)NCCN3C(=O)S/C(=C\c4cccnc4)C3=O)cc2C1=O | 0.37 | 0.78
COc1ccc([C@@H]2[C@@H]3C(=O)N(C(C)(C)C)C(=O)[C@@H]3[C@]3(Cc4ccccc4)C(=O)N(c4ccc(C(F)(F)F)cc4)C(=O)N23)cc1 | 0.03 | 0.42
O=C(NCc1ccncc1)c1ccc(N2CCCC2)c([N+](=O)[O-])c1 | 1.8 | 0.03
C=C(Br)Cn1cnc2ccccc21 | 1.2 | 0.19
O=C(O)C1C2CCC(O2)C1C(=O)NCCC1=CCCCC1 (stereo unspecified) | 0.46 | 3.2
Nc1cc(N)nc(SCc2ccc(Cl)cc2)n1 | 0.68 | -0.58
CCOC(=O)c1ccc(N(CC(=O)NCC2CCCO2)C(=O)CCC(=O)Nc2cc(C)on2)cc1 (stereo unspecified) | 0.17 | 0.08
CC1CC(OC(=O)C(O)c2ccccc2)CC(C)(C)N1C (stereo unspecified) | 0.27 | -0.87
Cc1[nH]nc2nc3c(c(OC(=O)c4ccccc4)c12)c(=O)n(C)c(=O)n3C | 2.3 | 2.7
CC(C)C1N=C2c3ccccc3N=C(SCC(=O)c3ccc(O)c(O)c3)N2C1=O (stereo unspecified) | 0.51 | 1.1
O=C1c2ccc([N+](=O)[O-])cc2C(=O)N1CNc1ccccn1 | 0.04 | 2.5
COc1ccc(C2CCCN2C(=S)Nc2cccc(Cl)c2)cc1OC (stereo unspecified) | 0.05 | 2.6
O=C(Nc1ccc(NC(=O)C2CCCCC2)nc1)c1cccs1 | 1.1 | -0.66
CC1(C)NC(=O)N(CC(=O)Nc2cc(C(F)(F)F)cc(C(F)(F)F)c2)C1=O | 0.76 | -3
O=C(CSc1ccc(Cl)cc1)Nc1ccccc1Oc1ccccc1 | 0.05 | 0.86
Cc1cc2cc(CNC(=O)NC3CCCCC3)ccc2[nH]1 | 3.7 | -0.29
COc1ccccc1CNC(=O)c1ccc(S(=O)(=O)N(C)C)cc1 | 0.08 | -0.01
CCSc1nnc2c(Cl)cc(Cl)cn12 | 0.58 | -1.4
COc1cccc(Cn2c(OCC3CCCO3)nc3c2c(=O)n(C)c(=O)n3C)c1 (stereo unspecified) | 0.3 | 0.04
CCOC(=O)c1cccc(NC(=O)CN2C(=O)C3C4C=CC(C4)C3C2=O)c1 (stereo unspecified) | 1.2 | 1.3
CCOc1ccc(C2=Nn3c(nnc3-c3ccc(OC)cc3)SC2)cc1 | 0.48 | 0.69
Cc1ccc(OCCOC(=O)Cn2nc(C)c([N+](=O)[O-])c2C)cc1 | 0.05 | 0.1
COC(=O)c1c(NC(=S)Nc2ccc(F)cc2[N+](=O)[O-])sc2c1CCCCC2 | 2.4 | 0.24
CCNC(=S)Nc1cc(C(=O)N2CCCC2)ccc1N1CCCC1 | 0.81 | -0.5
O=C(Nc1ccc2snnc2c1)N1CCCCC1 | 1.1 | 0.38
Cn1nc(CC(=O)NCc2ccc(F)cc2)c2ccccc2c1=O | 1.3 | -1.1
O=C(CCCc1ccccc1)NCCN1CCOCC1 | 0.94 | -1.6
Cc1ccc(NC(=O)C2CCC(CNC(=O)[C@@H]3Cc4ccccc4CN3)CC2)cc1 (stereo partly specified) | 0.99 | 0.14
C=CCn1c(SCC(=O)c2cccs2)nc2sc(CC)cc2c1=O | 0.71 | -0.04
CC(=O)c1ccc(NC(=O)c2cccc(N3C(=O)c4ccccc4C3=O)c2)cc1 | 0.01 | -0.12
Cc1ccc(S(=O)(=O)n2cnc3cc([N+](=O)[O-])ccc32)c(C)c1 | 1.1 | 0.1
COc1ccc(-n2ccn(CC(=O)Nc3ccccc3OC)c(=O)c2=O)cc1 | 0.04 | -0.05
CC1CC(C)CN(C(=O)CNC(=O)Cn2ccc3ccccc3c2=O)C1 (stereo unspecified) | 0.27 | -0.33
CCOC(=O)Cn1cc(C=O)c2ccccc21 | 2 | -1.8
COc1ccc(-c2cc(=O)[nH]c(N3CCN(Cc4ccccc4)CC3)n2)cc1 | 3.3 | 0.1
c1ccc(Nc2nc(N3CCNCC3)nc(N3CCOCC3)n2)cc1 | 0.2 | -1.1

Continuation.
SMILES | KCNQ2 enhance | KCNQ2 enhance baseline
CC(C)(Oc1ccc(Br)cc1Cl)C(=O)Nc1ccon1 | 0.81 | -0.18
Cc1ccc(-c2nc(C#N)c(NCCCn3ccnc3)o2)cc1 | 0.53 | 3
O=C(CCc1c[nH]c2ccccc12)NC(Cc1ccccc1)C(=O)O (stereo unspecified) | 0.14 | 0.11
O=C(COC(=O)/C=C/c1cccs1)Nc1cccc(S(=O)(=O)N2CCCC2)c1 | 1.6 | -1.6
COc1ccc(/C=N/NC(=O)CSc2nnc(C)n2-c2ccccc2)c(OC)c1OC | 1.3 | 1.6
c1ccc(CCCN2CCN(c3ccccn3)CC2)cc1 | 0.24 | 0.84
OCC[C@@H]1C[C@@H](O)[C@H](O)[C@@]2(Cc3ccccc3CO2)O1 | 0.19 | -1.5
CC(=O)N1CCc2cc(C(=O)CN3CCN(C(=O)c4ccco4)CC3)ccc21 | 0.53 | 0.36
COCCCNc1oc(-c2ccccc2F)nc1C#N | 0.89 | -2

Bioassay records from PubChem.

A portion of the library (hit frequency here may not be typical).
